# Bioassay records: PubChem, National Center for Advancing Translational Sciences (NCATS)
# VDR inhibitor – inhibitors of human vitamin D receptor; VDR-SRC2-3 peptide fluorescence polarization, 2 h; Potency, µM, without a hit: max response, negative = inhibition, actives largely listed as inhibitors; 0.93% of 400,000 active; AID 504847; active = well fitted inhibition curve with a large enough effect; inconclusive = small, poorly fitted or top-dose-only effect, or another doubt; inactive = no such curve, though single readings can be large or run the other way; also: series mostly up to about 120 µM
# Target sequence (P11473 whole entry, looked up): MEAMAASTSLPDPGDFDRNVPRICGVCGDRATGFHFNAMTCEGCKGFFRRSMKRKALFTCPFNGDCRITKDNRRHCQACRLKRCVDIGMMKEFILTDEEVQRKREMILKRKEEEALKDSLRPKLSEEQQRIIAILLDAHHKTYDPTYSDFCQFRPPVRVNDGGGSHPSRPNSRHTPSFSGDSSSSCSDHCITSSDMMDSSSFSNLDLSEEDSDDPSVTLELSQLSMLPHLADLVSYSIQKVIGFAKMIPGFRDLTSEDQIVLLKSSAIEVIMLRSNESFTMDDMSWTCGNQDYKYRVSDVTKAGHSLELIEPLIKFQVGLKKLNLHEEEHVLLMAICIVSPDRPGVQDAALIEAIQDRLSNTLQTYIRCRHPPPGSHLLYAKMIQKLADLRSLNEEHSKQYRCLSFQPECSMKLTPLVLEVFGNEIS
#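 Compounds are added to VDR with labelled SRC2-3 coactivator peptide and held 2 h at room temperature. Inhibition of the VDR–peptide interaction is then read as a change in fluorescence polarization.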
# Starred values were filed as active, the others as inactive; u = inconclusive; & = joins results of further samples. % is scaled to controls: 0 for no effect and ±100 for the full control effect; potency is read from the fitted curve at half-maximal effect. Only part of the results is shown. The share of hits here may be higher or lower than overall.
SMILES,VDR inhibitor
CCCCC(=O)Nc1nnc(SCC(=O)N2CCN(c3ccccc3OC)CC2)s1,6%
COc1c(Cl)cc(C(=O)Nc2ccccc2-c2ccccc2)cc1Cl,-14%
Cc1nc2sc3c(c2c2nnc(SCC(=O)NCc4ccco4)n12)CCCC3,11%
COc1ccccc1-c1cncnc1NCCNC(C)=O,u
CCC(C)(C)C(=O)O,0%
O=C(NCc1ccc(Cl)cc1)c1ccc(-n2cccn2)nc1,4%
CN1CCN(S(=O)(=O)c2ccc3c(c2)NC(=O)CS3)CC1,-14%
COc1cc(/C=N/NC(=O)CNC(=O)c2ccccc2)ccc1OC(=O)c1cccs1,2%
CC(C)OCCCNC(=O)c1ccc(CSc2nc3cccnc3n2Cc2ccccc2)cc1,1%
CC1(O)C(=O)C=C2C=C(c3ccsc3)OC=C2C1=O (centres undefined),12%
O=C(Nc1cc(Cl)ccc1O)c1cc2n(n1)C(C(F)(F)F)CC(c1ccc3c(c1)OCO3)N2 (centres undefined),-3%
Cc1nn(-c2ccccc2)c(C)c1C(=O)OCC(=O)c1c(N)n(CC(C)C)c(=O)n(C)c1=O,17%
COc1ccc(CCNC(=O)c2cc(-c3ccccn3)nc3c(Cl)cccc23)cc1OC,8%
CCCC(C)C(=O)Nc1nnc(CCc2ccccc2)s1 (centres undefined),16%
COc1cccc(CSc2nnc(-c3ccc(F)cc3)o2)c1,-2%
CC[C@]12c3[nH]c4cc(-c5ccco5)ccc4c3CCN1C(=O)[C@@H](CC(=O)NC(C)(C)C)C[C@@H]2C(=O)N1CCN(C(=O)C2CC2)CC1,5%
Cc1ccc(-n2ncc3c(=O)n(CC(=O)Nc4cccc(Cl)c4)cnc32)cc1C,3%
CCOc1ccccc1/C=N/NC(=O)c1nnn(-c2nonc2N)c1CN1CCCCCC1,-5%
O=C(NCCCc1ccccc1)c1ccc(F)cc1,-4%
CNC(=S)N1CCn2cccc2C1c1ccc(F)cc1 (centres undefined),1%
Cc1ccccc1-c1ncnn1-c1sc2c(c1C#N)CCCCC2,-6%
CCOc1ccc(OCC)c(NC(=O)c2cnc(SC)nc2-c2ccccc2)c1,4%
Cc1cccc(CCNC(=O)CC2C(=O)NCCN2Cc2ccc(F)c(F)c2)n1 (centres undefined),1%
CCOc1ccc(CNC(=O)CCS(=O)(=O)Cc2cccc(Cl)c2)cc1OC,-3%
COc1cc(OC)c2c(-c3ccccc3)cc(=O)oc2c1C(CC(=O)N1CCOCC1)c1ccc(N(C)C)cc1 (centres undefined),-2%&3%
Cc1nn(C)c(Oc2cccc(C(F)(F)F)c2)c1C=O,-6%
O=C(O)CN1C(=O)c2ccc(Oc3cccc4c3C(=O)N(CC(=O)O)C4=O)cc2C1=O,17%
Cc1sc2nc(-c3ccc(Br)cc3)oc(=O)c2c1C,u
Cc1cccc(CSc2nc3ccncc3n2Cc2ccc(C(=O)O)cc2)c1,2%
CN(C)c1ccc(-c2ccc3ncnc(NCc4ccccc4)c3c2)cc1,-5%
Cc1ccc(S(=O)(=O)N2CCCCC2)cc1NC(=O)COC(=O)Cc1c(F)cccc1Cl,2%
CCOC(=O)COc1cccc2c(=O)n(CC(=O)NCc3ccccc3)ccc12,6%
Cc1noc(NS(=O)(=O)c2ccc(NC(=O)CC(C)C)cc2)c1C,-12%
COc1ccc(-c2ccc(S(=O)(=O)N3CCCC3)cc2)cc1,-9%
Cn1c(=O)cc(Nc2ccccc2)c2c(=O)n(-c3ccccc3)c(=O)n(-c3ccccc3)c21,-4%
COc1ccc2[nH]c(C)c(C(=O)CN3CCN(C(=O)c4ccco4)CC3)c2c1,-7%
NNC(=O)c1cc(S(=O)(=O)N2CCOCC2)c[nH]1,4%
O=C(C(Cc1ccccc1)N1C(=O)c2ccccc2C1=O)N1c2ccccc2CCc2ccccc21 (centres undefined),-5%
CC(=O)/C(=N\Nc1cccc(Cl)c1)Sc1nnc(-c2ccccc2)n1-c1ccccc1,-8%
CS(=O)(=O)N1CCC(C(=O)Nc2ccccc2Br)CC1,-5%
CCCC(=O)Nc1ccc(Cl)c(NC(=O)c2ccco2)c1,1%
CCOC(=O)N1CCC(NC(=O)c2cnn(-c3ccc(C)cc3)c2-n2cccc2)CC1,20%
Cc1ccc(N2C(=O)CSC2c2c(F)cccc2Cl)cc1 (centres undefined),-8%
COc1cc2c(cc1OC)CN(C(=O)CSc1nc3[nH]ncc3c(=O)n1-c1ccccc1)CC2,2%
COc1ccc(NC(=O)c2cc3ccccc3cc2OC)cc1OC,-2%
CCCNC(=O)c1ccc(C2SCC(=O)N2Cc2ccccc2)cc1 (centres undefined),-1%
COc1cccc(CN2CCN(c3ncccn3)CC2)c1,8%
COc1ccccc1-c1coc2c(CN3CCCCC3C)c(O)ccc2c1=O (centres undefined),u
O=C1CSC(c2cn(-c3ccccc3)nc2-c2cc3ccccc3oc2=O)N1Cc1cccnc1 (centres undefined),15%
Cc1ccc(NC(=O)c2oc3ccc(S(=O)(=O)N4CCCCC4)cc3c2C)cc1C,5%
COc1ccc(Nc2ncc(C(=O)Nc3cccc(Cl)c3)c3ccccc23)cc1,-7%
COCCN(CC1CCCN(C2Cc3ccccc3C2)C1)C(=O)c1ccc(C(C)=O)cc1 (centres undefined),12%
CN1C(=O)c2ccc(C(=O)Nc3ccc(Br)cn3)cc2C1=O,-15%
CS(=O)(=O)c1ccccc1-c1nnc(NC(=O)COc2ccc(Cl)cc2)o1,-12%
COc1ccc(C(=O)Cc2cc(OC)c(OC)cc2C(=O)c2ccccc2F)cc1OC,-6%
O=CN1CCCN(Cc2nc(Cc3ccccc3F)no2)CC1,-13%
Oc1ccc(C[C@H]2CNCCN2CCc2cccc3ccccc23)cc1,-5%
O=C(O)CC(NC(=O)C12CC3CC(CC(C3)C1)C2)c1ccc(OC2CCCC2)cc1 (centres undefined),-12%
CCc1ccc(C(c2c(C)nn(-c3ccccc3)c2N)c2c(C)nn(-c3ccccc3)c2N)cc1,-2%
O=C(NCCSc1c[nH]c2ccccc12)c1ccc(Cl)cc1,-10%

# Additional records.
SMILES,VDR inhibitor
CCOC(=O)c1c(C)[nH]c(C)c1S(=O)(=O)N1CCN(c2ccc(F)cc2)CC1,10%
O=C(Nc1nncs1)c1ccc(S(=O)(=O)c2ccccc2)cc1,-6%
Cn1c(SCC(=O)NCCc2ccccc2)nnc1C1CCCCC1,-6%
Cc1cc(C)n(-c2cc(N3CCN(C(=O)c4cccc(Br)c4)CC3)ccc2[N+](=O)[O-])n1,0%
COc1ccc(CNC(=O)CN2N=C(c3ccc(Cl)cc3)CCC2=O)cc1,-7%
COc1ccc(C(=S)N2CCN(c3ccccc3C)CC2)cc1,-24%
O=C(/C=C/c1cccc([N+](=O)[O-])c1)N1CCN(c2ccc(F)cc2)CC1,-8%
CCOc1ccc(NC(=O)c2ccc3c(c2)CCN3S(C)(=O)=O)cc1,7%
CCc1nnc(NC(=O)CN2C(=O)c3ccccc3C2=O)s1,-9%
CCn1c2ccccc2c2cc(NC(=O)COC(=O)c3cc(S(=O)(=O)N4CCCCC4)ccc3Cl)ccc21,-10%
CC1=C(C(=O)Nc2cccc([N+](=O)[O-])c2)C2(CCC(C)CC2)OC1=O (centres undefined),-3%
CCOC(=O)C1CCN(CC(O)COCc2ccc3c(c2)OCO3)CC1 (centres undefined),-17%
CN(C)CCn1c(C(=O)O)cc2ccccc21,2%
CCOC(=O)c1cnc(-n2nc(C)cc2C)nc1NCCO,-12%
O=C(CCc1ccccc1)Nc1nc2c(F)cc(F)cc2s1,-13%
Cc1ccc(C2=NOC(C)(c3nnc(-c4ccc(Cl)cc4)o3)C2)cc1 (centres undefined),-10%
O=C(NN1CCOCC1)c1c(-c2ccccc2)sc2ccccc12,-5%
COc1cccc(/C=C/C(=O)OCC(=O)NCc2ccc(Cl)cc2)c1,-1%
Nc1cc(N)nc(SCC(=O)N2CCCCC2)n1,25%
CNNC(=S)Nc1cccc(C(F)(F)F)c1,-7%
COc1ccc(C(=O)NC(=S)NNC(=O)Cc2cccs2)cc1,-2%
O=C(C1CCN(S(=O)(=O)c2ccc(Br)s2)CC1)N1CCCCC1,4%
CCOc1ccccc1-n1cnc2cc(C(=O)NCc3ccco3)ccc21,1%
O=CN/C=C/c1cc(F)cc(F)c1F,-3%
Cc1csc(=Nc2ccccc2)n1Cc1ccco1,-5%
O=[N+]([O-])c1ccc(/C=N/N/C(=N/c2ccccn2)c2ccccn2)cc1,0%
Cc1cc(C)nc(N/N=C2/CCCC/C2=C\c2ccccc2)n1,-13%
N#CCCN1CCN(C2=NC(=O)C(=C3CCCCC3)S2)CC1,0%
O=C(Cn1cnc2scc(-c3cccc([N+](=O)[O-])c3)c2c1=O)NCc1ccco1,4%
Cc1ccc2c(c1)C(O)(CC(=O)c1ccc(C)s1)C(=O)N2 (centres undefined),1%
O=C(Cc1ccc([N+](=O)[O-])cc1)NCc1cccnc1,-10%
O=C(N/N=C/c1c[nH]c2ccccc12)c1ccc(Cl)cc1,-21%
Cn1c(SCc2cccc(C#N)c2)nc2ccccc2c1=O,u
COCCNc1ccnc(-c2c(C)noc2C)n1,11%
O=C(c1ccco1)N1CCC2(CC1)CCN(c1ccncc1)CC2,4%
COc1cc2sc3ccc(C#CC4(O)CCCCC4)cc3c(=O)c2cc1OC,-12%
CN(C(=O)COc1ccc(Cl)cc1Cl)C1(C)CCS(=O)(=O)C1 (centres undefined),-5%
O=c1oc2cc(Br)ccc2n1Cc1ccccc1,-12%
O=C(CCN1C(=O)/C(=C/c2cccs2)SC1=S)Nc1ccc(O)cc1,-11%
COc1ccc(OC)c(C(=O)c2ccc(C(=O)Nc3ccc(NC(C)=O)cc3)cc2)c1,3%
O=C(/C=C/c1ccccc1)c1c[nH]c2ccccc12,-13%
COc1ccccc1-c1nnc(NC(C)=O)s1,-4%
CCn1c(-c2csc3ccccc23)n[nH]c1=S,-19%
NC(=O)CCCSc1nc2ccccc2[nH]1,-3%
COc1ccc(OC)c(S(=O)(=O)N2CCC(C(=O)NC3CCCCC3)CC2)c1,5%
Cc1ccc(-c2[nH]nc3c2C(c2ccoc2)C(C#N)=C(N)O3)cc1C (centres undefined),u
Cc1cccc(NC(=O)c2cccnc2)c1C,15%
CCn1nnc(NC(=O)C(c2ccccc2)c2ccccc2)n1,-3%
COc1ccc(/C=C/c2cccc[n+]2C)c(O)c1,1%
CCOC(=O)CSc1cc(=O)n(CC)c2ccccc12,-5%
O=C(Nc1ccc(N2CCN(c3ccc(C(F)(F)F)cn3)CC2)nc1)c1cccs1,3%
Cc1ccc(CNC(=O)Cc2cccs2)cc1,19%
Cc1cccc(CSc2nn3c(=O)c(C)nnc3s2)c1,-7%
CC1CC2(CCCCC2)Nc2ccc3ccccc3c21 (centres undefined),-9%
CCC(CC)C1C(C#N)=C(N)Oc2cc(C)oc(=O)c21 (centres undefined),-15%
O=C(NCc1cccc(C(F)(F)F)c1)C1CC(c2ccccc2C(F)(F)F)=NO1 (centres undefined),-7%
O=c1n(Cc2ccccc2Cl)c2ccccc2c2nc(-c3ccccc3)nn12,-7%
OCC[C@H]1C[C@H](O)[C@@H](O)[C@]2(OCc3ccccc32)O1,2%
Cc1cccc(CS(=O)(=O)Cc2ccc(C(=O)NC3CCCC3)o2)c1,-16%
Cc1cccc(C(=O)OCC(=O)NCc2cccs2)c1,-4%

# Part of the list above in order of length of the SMILES, rising.
SMILES,VDR inhibitor
Cc1csc(=Nc2ccccc2)n1Cc1ccco1,-5%
Cc1noc(NS(=O)(=O)c2ccc(NC(=O)CC(C)C)cc2)c1C,-12%
O=C(Nc1cc(Cl)ccc1O)c1cc2n(n1)C(C(F)(F)F)CC(c1ccc3c(c1)OCO3)N2 (centres undefined),-3%

# Later entries
SMILES,VDR inhibitor
COc1ccccc1C(=O)NC(=O)Nc1ccc(-n2nc(C(F)(F)F)cc2C(F)(F)F)cc1,1%
Cc1ccc(C(=O)NNC(=O)c2ccc(NS(=O)(=O)c3cccs3)cc2)o1,-3%
Cc1cccc(NC(=S)N(Cc2cccc(Br)c2)CC2CCC(C(=O)O)CC2)c1 (centres undefined),-17%
C=C(NC(=O)C(=C)NC(=O)c1csc(C2=N[C@@H]3c4csc(n4)[C@@H]4NC(=O)c5csc(n5)[C@@H]([C@](C)(O)[C@H](C)O)NC(=O)[C@@H]5CSC(=N5)/C(=C/C)NC(=O)[C@@H]([C@H](C)O)NC(=O)c5csc(n5)[C@]3(CC2)NC(=O)[C@@H](C)NC(=O)C(=C)NC(=O)[C@@H](C)NC(=O)[C@@H]([C@@H](C)CC)N[C@H]2C=Cc3c([C@H](C)O)cc(nc3[C@@H]2O)C(=O)O[C@H]4C)n1)C(N)=O,-2%
c1ccc(-c2nc(N3CCOCC3)cc(N3CCOCC3)n2)cc1,22%
COc1cccc(NC(=O)C2CCN(c3cnccn3)CC2)c1,14%
COc1ccc(S(=O)(=O)N2CCCC2C(=O)Nc2ccc(C)cc2)cc1 (centres undefined),-5%

# Reformatted field by field: part of the list above.
SMILES: COc1cc(/C=N/NC(=O)CNC(=O)c2ccccc2)ccc1OC(=O)c1cccs1
  VDR inhibitor: 2%

SMILES: CC(C)OCCCNC(=O)c1ccc(CSc2nc3cccnc3n2Cc2ccccc2)cc1
  VDR inhibitor: 1%
